From PubChem
NPYLR7 ag = mosquito NPYLR7 agonism. HEK293T NPYLR7/Galpha15, GCaMP6s calcium fluorescence. activation, % at 10 µM. 270,000 compounds, 0.15% hits. AID 1259423; in the data active means activation above about 40%;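 further: 0% = vehicle and 100% = reference agonist at the receptor; some compounds past the cut are filed as inactive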
NPYLR7 ag max-min = second read-out of NPYLR7 ag, no call of its own (marks repeat the call); activation, %; measured here: Max-Min RFU normalised activation; some inactives read as strong as hits;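 span of the calcium signal over five minutes; 0% = vehicle and 100% = native peptide agonist; compound fluorescence can raise it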
* hit, by the source's call; & = joins results of further samples.

(1) FC(F)(F)C1CCCN(c2c3c(nc4ncnn24)CCC3)C1 (centres undefined)
(2) Cc1nn(C)c(C)c1NS(=O)(=O)c1ccc(Cl)s1
(3) Cc1ccc(F)cc1NC(=O)N1CC[C@H](CO)[C@H](O)C1
(4) C=CCN(CC(=O)N(Cc1cccn1C)CC(C)C)C(=O)Nc1ccc(Br)cc1
(5) COc1cc2c(cc1C1CC(=O)Nc3cc(O)c(C)cc31)OCCCO2 (centres undefined)
(6) CN(CC(=O)Nc1ccc(Cl)cn1)CC(=O)Nc1c(Cl)cccc1Cl
compound no. | 1 | 2 | 3 | 4 | 5 | 6
NPYLR7 ag | 7.4 | 1.5 | 1.9 | -6.9 | 14.8 | 0.4
NPYLR7 ag max-min | 4.6 | -0.8 | -2.4 | -6.2 | 10.7 | -2.9

(7) N#Cc1ccsc1NC(=O)c1ccccc1OC(F)F
(8) Cc1ncc(CN(C)C(=O)c2ccc(Cl)c(Cl)c2O)s1
(9) CCCCN(C)c1c(CC)nc2ccc(C(=O)NCCCN(C)C)cn12
(10) COc1ccc(NC2CCCN(C(=O)CCc3nc4ccccc4s3)C2)cc1OC (centres undefined)
(11) Cc1cccc(C)c1Cn1c(C)c(C(=O)NCc2ccc([N+](=O)[O-])cc2)sc1=O
(12) O=C(CSCc1cc(Cl)c2c(c1)OCO2)NC1CC1
compound no. | 7 | 8 | 9 | 10 | 11 | 12
NPYLR7 ag | -1.0 | 1.2&12.3 | -6.6 | 7.1 | 9.4 | 4.9
NPYLR7 ag max-min | 0.2 | 5.7&5.5 | -14.0 | 3.0 | 4.4 | 5.2

Looked up by compound from above (2):
(10) COc1ccc(NC2CCCN(C(=O)CCc3nc4ccccc4s3)C2)cc1OC (centres undefined)
(11) Cc1cccc(C)c1Cn1c(C)c(C(=O)NCc2ccc([N+](=O)[O-])cc2)sc1=O
compound no. | 10 | 11
NPYLR7 ag | 7.1 | 9.4
NPYLR7 ag max-min | 3.0 | 4.4

New compounds follow.
(13) O=C(c1ccc(CSc2ccc([N+](=O)[O-])cn2)cc1)N1C2CCC1CC(Oc1ccc(F)cc1F)C2 (centres undefined)
(14) COc1ccc(OC)c(NC(=O)c2ccc(-n3nc(-c4cccc(C)c4)cc3N)cc2)c1
(15) CCN(CC)C(=O)Oc1ccc2c(ccn2Cc2cccc(SC(F)(F)F)c2)c1-c1cc(C)cc(C)c1
(16) CCCCOc1ccc(C(=O)Nc2sc3c(c2C(N)=O)CCCC3)cc1
(17) COCc1nc(CN2CCCC(O)(CO)C2)no1 (centres undefined)
(18) O=C(NCc1cccs1)c1cccnc1N1CCN(C(=O)c2ccccn2)CC1
compound no. | 13 | 14 | 15 | 16 | 17 | 18
NPYLR7 ag | 9.8 | -3.3 | 10.8 | -3.0 | 1.4 | 5.3
NPYLR7 ag max-min | -4.8 | -8.3 | -1.8 | -8.4 | 12.8 | -4.5

(19) O=C(Nc1n[nH]c(-c2ccco2)n1)C1Cc2ccccc2S1 (centres undefined)
(20) c1ccc2[nH]c(SCc3cn4cccnc4n3)nc2c1
(21) CCCCNc1ccc(NCCCC)c2c1C(=O)c1ccccc1C2=O
(22) CC(c1ccc2c(c1)OCCO2)N(C)C(=O)c1cn(CCc2ccccc2)nn1 (centres undefined)
(23) COc1cc(-c2c(Nc3ccccc3)oc3c2c(=O)n(C)c(=O)n3C)cc(OC)c1OC
(24) Cc1ccc(Cn2cc(SCCN)c3ccccc32)cc1
compound no. | 19 | 20 | 21 | 22 | 23 | 24
NPYLR7 ag | 7.4 | 6.0 | -0.3 | -3.4 | -4.6 | -3.8
NPYLR7 ag max-min | 1.6 | 0.7 | 0.5 | -6.8 | -7.5 | -4.0

(25) CCN(CC1COc2ccccc2O1)C(=O)C1Cc2ccccc2CN1S(C)(=O)=O (centres undefined)
(26) COc1ccc(-c2ccc(OCCNC(=O)c3sc(-c4ccccc4)nc3C)nn2)cc1
(27) O=C(CNC1CC1)N(Cc1ccc(F)cc1)Cc1ccco1
(28) CCCn1c(N2CCN(Cc3ccccc3)CC2)nc2c1c(=O)[nH]c(=O)n2C
(29) Cc1c(Cl)c(C(F)(F)F)nn1CC(=O)Nc1cccnc1Cl
(30) CC(C)C(C)N(Cc1cccnc1)Cc1ccco1 (centres undefined)
compound no. | 25 | 26 | 27 | 28 | 29 | 30
NPYLR7 ag | -0.7 | -3.3 | 19.7 | -4.9 | 18.2 | 7.6
NPYLR7 ag max-min | -4.1 | -3.2 | 24.4 | -6.0 | 5.4 | 4.9

(31) Cc1onc(-c2ccccc2Cl)c1C(=O)N1CCC2(CN(C)C(=O)O2)C1 (centres undefined)
(32) CC(C)c1ccc(CN(c2ccc(C#N)cn2)C2CC2)cc1
(33) c1ccc(-c2cccc(CN3CCCC3c3ccccn3)c2)nc1 (centres undefined)
(34) c1ccc(CNc2c(-c3ccccn3)nc3c(OCc4ccccc4)cccn23)cc1
(35) CC(C)c1nn(CC(=O)N(C(C)C)C(C)C)c(=O)c2c1cnn2-c1ccccc1
(36) CC(C)Nc1cc(NCc2cccnc2N2CCCN(C)CC2)ncn1
compound no. | 31 | 32 | 33 | 34 | 35 | 36
NPYLR7 ag | 6.6 | 0.7 | 18.6 | 23.1 | 9.1 | -5.7
NPYLR7 ag max-min | 4.4 | 0.4 | 5.2 | 24.1 | 7.0 | -8.3

(37) CCS(=O)(=O)c1oc(-c2ccc(F)cc2)nc1S(=O)(=O)c1ccc(F)cc1
(38) C#CCN(C)C(=O)C(C)N(c1ccccc1)S(C)(=O)=O (centres undefined)
(39) CSC1=NCCN1C(=O)C1c2ccccc2Oc2ccccc21
(40) CC1CCCCN1C(=O)C(NC(=O)c1cccs1)C1CCN(C(=O)c2ccco2)CC1 (centres undefined)
(41) Cc1ccc(C)c2c1NC(=O)C2CC(=O)O (centres undefined)
(42) CC(NC(=O)c1ccnc(Cl)c1)c1ccccc1NS(C)(=O)=O (centres undefined)
compound no. | 37 | 38 | 39 | 40 | 41 | 42
NPYLR7 ag | 1.4 | -0.6 | 8.3 | -6.4 | -15.4 | 19.0
NPYLR7 ag max-min | -2.4 | -0.1 | 4.0 | -4.1 | -20.4 | 19.6

(43) Cc1ccnc(N2CCN(CCC(N)=O)CC2)n1
(44) CC1CCCN(CCNC2CCN(Cc3ccccn3)CC2)C1 (centres undefined)
(45) COc1ccccc1NC(=S)N=C1CCN(c2ccccc2)N1
(46) COC(=O)[C@]1(C)C[C@H](C(=O)N(C)CCO)[C@H](c2ccccc2)N1C
(47) CCCN1CCC(C(=O)NC(c2ccsc2)c2ccccc2C)CC1 (centres undefined)
(48) COC(=O)CCCNC(=O)c1cc(S(=O)(=O)N(C)C)ccc1Cl
compound no. | 43 | 44 | 45 | 46 | 47 | 48
NPYLR7 ag | 18.6 | 12.0 | 3.9 | 14.9 | 11.0 | -3.1
NPYLR7 ag max-min | 10.1 | -3.0 | 3.7 | 8.9 | 0.7 | 4.8

(49) CN(C)c1ncc(CN2CCC(CCC(=O)N3CCN(c4ccccc4)CC3)CC2)s1
(50) COCCCN1COc2ccc3cc(-c4ccccc4)c(=O)oc3c2C1
(51) O=C1Nc2cc(Cl)ccc2C1=Cc1ccc(Br)s1
(52) CCN(CC)CCCC(C)NC(=O)c1sc2cc(Cl)c(OC)c(OC)c2c1Cl (centres undefined)
(53) CCOC(=O)c1ccc(OC2CC3CCC(C2)N3C(=O)c2ccc(CSCc3ccc(F)cc3)cc2)cc1 (centres undefined)
(54) O=C1CSc2nnc(COc3ccc4c(c3)OCO4)n2N1Cc1cc(F)ccc1F
compound no. | 49 | 50 | 51 | 52 | 53 | 54
NPYLR7 ag | 4.8 | 2.6 | 10.4 | -2.7 | 0.5 | 5.0
NPYLR7 ag max-min | -2.0 | -4.9 | 17.3 | -0.5 | -5.7 | 4.5

(55) CC(C)N(CC(=O)N(Cc1ccco1)Cc1cccn1C)C(=O)Nc1ccc(Br)cc1
(56) CCC(=O)Nc1ccc(OCC(=O)NC(C)c2cn3ncsc3n2)cc1 (centres undefined)
(57) O=C(CSc1ncnc2sccc12)N1N=C(c2ccco2)CC1c1ccco1 (centres undefined)
(58) COC(=O)CC1C(=O)NCCN1C(=O)c1cccc2c1NCCC2 (centres undefined)
(59) Cc1cc(-c2csc3ncnc(N4CCN(C)CC4)c23)cc(C)c1C
(60) Cc1ccc(CN(CCc2ccccc2)C(=O)CN(Cc2cccc(Cl)c2)C2CC2)o1
compound no. | 55 | 56 | 57 | 58 | 59 | 60
NPYLR7 ag | -15.5 | 2.6 | 3.1 | 6.9 | -1.9 | 12.7
NPYLR7 ag max-min | -7.7 | 3.4 | 5.9 | 4.9 | -3.4 | 20.5

(61) Cc1cccc(CCCOCCOC(=O)NCC2COc3ccccc3O2)n1 (centres undefined)
(62) Cn1c(=O)n(C)c2cc(NC(=O)c3ccn(-c4cccc(F)c4)n3)ccc21
(63) CCOc1ccc(NC(=O)CSc2nc(=O)n(CCCN3CCOCC3)c3c2CCC3)cc1
(64) O=C(CCN1C(=O)c2ccccc2C1=O)Nc1cccc(O)c1
(65) CN(Cc1cccc2ccccc12)C(=O)c1ccc(N2CCNC2=O)cc1
(66) O=C1OC(/C=C/c2ccc(Cl)cc2)=NC/1=C/c1ccccc1
compound no. | 61 | 62 | 63 | 64 | 65 | 66
NPYLR7 ag | -5.8 | 17.4 | -3.4 | -2.5 | 15.5 | -20.5
NPYLR7 ag max-min | -11.1 | 14.4 | -7.5 | -6.0 | 13.8 | -26.9

(67) CC(O)(c1ccc(F)c(F)c1)c1nc(-c2cccc(C(=O)O)c2)cs1 (centres undefined)
(68) CC(O)(c1cccnc1)c1nc(-c2cccc(CO)c2)cs1 (centres undefined)
(69) CCOC(=O)Nc1cccc(C(=O)NC2CCN(C3CCCCCC3)C2)c1 (centres undefined)
(70) COc1cc(OC)cc(-c2nnc(SCc3c(F)cccc3Cl)n2-c2ccc(C)cc2)c1
(71) CCCc1nccn1CC(=O)Nc1ccc(C(C)C)cc1
(72) Cc1cccc(NC(=O)Cn2c3ccccc3c(=O)c3ccccc32)c1
compound no. | 67 | 68 | 69 | 70 | 71 | 72
NPYLR7 ag | -3.6 | 2.9 | -6.1 | 16.8 | 4.3 | -1.3
NPYLR7 ag max-min | -2.7 | 0.4 | -7.4 | 20.3 | -11.3 | -8.0

(73) COc1ccc(NC(=O)NCCNc2ccc(Nc3cc(C)ccn3)nn2)cc1OC
(74) CCN(CC)c1ccc2cc(-c3nnc(Nc4ccc(OC)cc4)s3)c(=O)oc2c1
(75) O=C(NCCCNC(=O)[C@H]1CCCN1C(=O)C1CCC1)c1ccccc1
(76) COCCN(Cc1cccn1Cc1ccccc1)C(=O)c1cccc(Br)c1
(77) COC(=O)c1ccc(C(=O)Nc2cc(OC)ccc2OC(C)C)nc1
(78) CCCCCCc1ccc(C(=O)N2CCC3(CC2)C(=O)N(CC(=O)NCc2ccc4c(c2)OCO4)CN3c2ccccc2)cc1
compound no. | 73 | 74 | 75 | 76 | 77 | 78
NPYLR7 ag | 26.4 | -11.7 | 16.2 | 5.3 | -3.2 | 5.2
NPYLR7 ag max-min | 12.4 | -15.8 | 13.8 | 15.7 | -2.5 | 8.9

(79) COCC(=O)N1C[C@H](O)[C@H]2C[C@@H]1CC[C@H]2N1CCOCC1
(80) Nc1cc(Br)cc2c1C(=O)c1ccccc1C2=O
(81) CCCS(=O)(=O)N1CCN(Cc2ccco2)CC1
(82) CS(=O)(=O)N1CCCC1C(=O)N(Cc1cccnc1)c1nc2ccc(F)cc2s1 (centres undefined)
(83) CCCN(Cc1ccc(OC)cc1)C(=O)c1nn(C)c2ccccc12
(84) COCCNC(=O)Cn1c(CO)cnc1SCc1ccc(C(F)(F)F)cc1
compound no. | 79 | 80 | 81 | 82 | 83 | 84
NPYLR7 ag | 24.5 | 24.9&0.7 | 11.4 | 1.7 | -4.6 | 7.0
NPYLR7 ag max-min | 29.5 | 21.1&0.5 | 5.1 | 2.2 | -10.3 | 1.6

Some of the entries above in a different format:
item	structure	NPYLR7 ag	NPYLR7 ag max-min
8	Cc1ncc(CN(C)C(=O)c2ccc(Cl)c(Cl)c2O)s1	1.2&12.3	5.7&5.5
9	CCCCN(C)c1c(CC)nc2ccc(C(=O)NCCCN(C)C)cn12	-6.6	-14.0
10	COc1ccc(NC2CCCN(C(=O)CCc3nc4ccccc4s3)C2)cc1OC (centres undefined)	7.1	3.0
11	Cc1cccc(C)c1Cn1c(C)c(C(=O)NCc2ccc([N+](=O)[O-])cc2)sc1=O	9.4	4.4
12	O=C(CSCc1cc(Cl)c2c(c1)OCO2)NC1CC1	4.9	5.2
13	O=C(c1ccc(CSc2ccc([N+](=O)[O-])cn2)cc1)N1C2CCC1CC(Oc1ccc(F)cc1F)C2 (centres undefined)	9.8	-4.8

New compounds follow:
(85) CC(C)Cc1nnc2sc(-c3ccccc3-c3ncc[nH]3)nn12
(86) COc1ccc(-n2nnc3c(=O)n(Cc4ccc(C)cc4)cnc32)cc1
(87) Cc1ccc(C(=O)N2CCC(C(=O)Nc3ccc(-n4nc(C)cc4C)cc3)CC2)cn1
(88) CO[C@H]1CN(C(=O)Nc2ccc(Cl)cc2Cl)[C@H]2CC[C@@H](O)[C@@H]1C2
(89) CCOC=CC(O)(CNC(=O)OC(C)(C)C)C(F)(F)F (centres undefined)
(90) COc1cncc(-c2ccc3nnc(-c4ccccc4C)n3c2)c1
compound no. | 85 | 86 | 87 | 88 | 89 | 90
NPYLR7 ag | 2.8 | 1.7 | 13.6 | 19.8 | 8.2 | 11.2
NPYLR7 ag max-min | -1.6 | 7.0 | 2.0 | 19.6 | 6.1 | -3.4

(91) COc1ccc(CCn2c(-c3cnc4ccccc4c3)nc3cc(Cl)ccc3c2=O)cc1
(92) C=c1occc1=C1NN=C(SCC(=O)NC(C)CC)O1 (centres undefined)
(93) O=C(c1ccccc1F)N1N=C(c2cccs2)CC1c1ccc2nccnc2c1 (centres undefined)
(94) c1cncc(-c2nc3cc(-c4ccccc4CN4CCOCC4)ccc3o2)c1
(95) CC(C)(C)Cn1c(N)nc2ccc(-c3[nH]c(C(C)(C)C)nc3-c3ccc(F)cc3)nc21
compound no. | 91 | 92 | 93 | 94 | 95
NPYLR7 ag | 5.4 | 4.2 | 2.1 | 6.9 | -9.2
NPYLR7 ag max-min | 1.7 | 5.2 | 9.9 | 4.5 | -20.8

Some of the compounds tested (hit frequency here may not be typical).
